H5N1 CPE: antiviral screen in MDCK cells, H5N1 avian flu | inhibition, % at 50 µM | AID 740 | 96,000 tested, 0.07% active | cytopathic effect, luminescence, 72 h; hits give high values; no value below 0 was filed and about half of the inactive calls have no number; reference of the scale not given here; in the data active = inhibition above about 25%
Starred values were filed as active, the others as inactive; i = inactive.

compound	H5N1 CPE
CC(=O)N1CCN(S(=O)(=O)c2cccc(C(=O)Nc3nc4ccccc4[nH]3)c2)CC1	i
Clc1ccc(-c2nnc3sc(-c4ccc(Br)o4)nn23)c(Cl)c1	i
Cn1ncc2cc(NC(=S)NC(=O)c3ccccc3)ccc21	1.3
CCOC(=O)N1CCN(c2c(NCCN3CCN(Cc4ccccc4)CC3)c(=O)c2=O)CC1	1.3
COc1ccc(CNc2ccc3c(c2)nc(C)n3C)cc1	i
CCN(CC)CCCN1CC(O)=C(c2nc3ccccc3s2)C1=N	i
CCc1nc2c(sc3nc4c(cc32)COC(C)(C)C4)c(=O)n1Cc1ccco1	0.7
CCOC(=O)C1CCN(C(=S)Nc2cccc(C)c2)CC1	0.6
Cc1onc(-c2ccccc2Cl)c1C(=O)N1CCN(C/C=C/c2ccccc2)CC1	i
O=C(CN(Cc1cccs1)C(=O)CSc1nnc(COc2ccccc2)o1)NC1CCCC1	0.7

An excerpt of these results, field by field:
structure: COc1ccc(CNc2ccc3c(c2)nc(C)n3C)cc1
  H5N1 CPE: i
structure: CCN(CC)CCCN1CC(O)=C(c2nc3ccccc3s2)C1=N
  H5N1 CPE: i
structure: CCc1nc2c(sc3nc4c(cc32)COC(C)(C)C4)c(=O)n1Cc1ccco1
  H5N1 CPE: 0.7
structure: CCOC(=O)C1CCN(C(=S)Nc2cccc(C)c2)CC1
  H5N1 CPE: 0.6

(next part)
compound	H5N1 CPE
CN1C(=O)c2cccc(NC(=O)C3CCCCC3)c2C1=O	i
COc1ccccc1NC(=O)C(C/C=C(\C)Cl)C(C)=O (configuration not stated)	i
COc1ccc2c(c1)c1ncn(CCN3CCCC3)c(=O)c1n2C	0.2
Cc1cccc(NS(=O)(=O)c2cc(C(=O)N3CCc4ccccc4C3)ccc2Cl)c1C	i
CN1CCN(C(=O)CN(Cc2ccccc2)S(C)(=O)=O)CC1	1.2
Cc1nc2ccc(NC(=O)c3ccc(Cl)c(NC(=O)c4cccs4)c3)cc2s1	0.9
Cn1nnnc1SCC(=O)Nc1ccccc1N1CCOCC1	0.3
CN(C)c1nccc(Nc2ccccc2)c1C#N	0.3
COCCNc1oc(-c2ccccc2Cl)nc1C#N	i
O=c1cc(C23CC4CC(CC(C4)C2)C3)[nH][nH]1	0.9
CCC(C)Nc1ncnc2c1cnn2Cc1ccc(Cl)cc1 (configuration not stated)	0.1
Cc1ccc(C)c(CN2CCCN(C(=O)Cn3ncc4c3-c3ccccc3OC4)C2)c1	i
Cc1cc2ccccn2c1C(=O)c1nc(N2CCOCC2)ncc1Cl	i
Cc1c(/C=C(\C#N)c2nn(-c3ccccc3)c(N)c2C#N)c2ccccc2n1Cc1ccc(F)cc1	0.1
c1ccc(-n2ncc3c(NCCN4CCCCC4)ncnc32)cc1	i
CC(=O)NC1=NC(=O)CS1	0.2
COc1cc2[nH]c(=O)n(CCC(=O)N3CCc4ccccc4C3)c(=O)c2cc1OC	1.4
COc1ccc(OC)c(/C=N/NC(=O)CSc2nnc(C)n2-c2ccccc2)c1	1.4
N#Cc1ccc(-c2ccc(F)cc2)nc1SCC(=O)Nc1sc2c(c1C#N)CCC2	i
CCCn1c(=O)c2ccccc2n2c(Sc3nnnn3-c3ccccc3)nnc12	2.8
O=C1c2oc3ccccc3c(=O)c2C(c2cccnc2)N1CCCN1CCOCC1 (configuration not stated)	1.8
COCc1cc(C)nc(N2CCc3ccccc32)c1C#N	i
Cc1ccc2cc(C#N)c(NCCNC(=O)C3CC3)nc2c1C	0.2
COCCCNC(=O)C1CCN(S(=O)(=O)c2c(C)noc2/C=C\c2ccc(OC)cc2)CC1	1.6
CCC1=[N+](C)CCn2c(C)ccc21	0.0
CC(=O)Nc1cc2c(cc1C(C)=O)OCCO2	0.2
COc1cc(NC(=O)c2cc(C(C)C)on2)c(OC)cc1Cl	i
CC(C)(C)NS(=O)(=O)c1ccc(NS(C)(=O)=O)cc1	i
CCOC(=O)Cc1csc(NC(=O)CSc2nnc(C(C)C)n2C)n1	i
CCc1c(C(=O)NNC(=S)NCC(C)C)csc1C	1.0
Cc1nc(NCc2ccccc2)c(C(N)=O)c2c1COC(C)(C)C2	0.3
Cc1cc(C)nc(NS(=O)(=O)c2ccc(NC(=O)COc3ccccc3)cc2)n1	1.0
CCc1ccccc1NC(=O)C(Cc1cccc(OC)c1OC)c1nn[nH]n1 (configuration not stated)	0.9
CC(=O)Nc1ccc(S(=O)(=O)N(CCO)Cc2ccccc2)cc1	1.7
CN1C(=O)C(=Cc2ccc(N3CCCCC3)o2)C(=O)N(C)C1=S	0.3
CC1CCN(c2ccc(C(=O)O)cc2N)CC1	0.3
CCOC(=O)/C=C1\SCC(=O)N1CC(=O)NC1CCCCC1	0.4
C=CCn1c(SCC(=O)c2cc(C)n(Cc3cccs3)c2C)nnc1-c1ccncc1	1.4
O=C(ON=C1CCN(S(=O)(=O)c2ccccc2)CC1)c1ccc(F)cc1	0.7
CCCN1C(=O)C2(C(C(=O)c3ccc(C)o3)=C(O)C(=O)N2CCCN2CCOCC2)c2ccccc21 (configuration not stated)	i
O=C(c1ccc2c(c1)OCO2)N1CCC2(CC1)OCCO2	i
COc1cc(Nc2nc(SCC#N)nc3ccccc23)cc(OC)c1OC	1.1
CCCCSC(=S)N(C)C1CCS(=O)(=O)C1 (configuration not stated)	1.3
CCCCOc1ncnc2c1[nH]c1ccc(OCC)cc12	0.4
Cn1c2c(c(=O)n(C)c1=O)C(NS(=O)(=O)c1ccccc1)(C(F)(F)F)C(=O)N2 (configuration not stated)	i
Cc1ccc(NS(=O)(=O)c2ccc(NC(=O)C3CCCO3)cc2)cc1 (configuration not stated)	0.3
CCCCCC(=O)N1CC2(CC(c3cccc(NC(=O)c4ccccc4)c3)=NO2)C[C@@H]1C(N)=O (some centres not stated)	0.3
Cc1nc(SCC(=O)NC(C)c2ccccc2)c2oc3ccccc3c2n1 (configuration not stated)	i
CCOC(=O)c1cnn(-c2ccccc2)c1N	0.2
Cc1ccc(N2CC(C(=O)NCc3ccc4c(c3)OCO4)CC2=O)cc1C (configuration not stated)	i

(more compounds)
compound	H5N1 CPE
CCN(CC)c1ccc(C(=S)N2CCN(c3ccccc3)CC2)cc1	i
CCC(=O)c1ccc(OCC(O)CN2C(=O)NC(C)(C)C2=O)cc1 (configuration not stated)	0.3
CCCn1c(CC)nc([N+](=O)[O-])c1Sc1ccc(F)cc1	i
Cc1ccc(NCc2nnc(SCC(=O)N(Cc3ccccc3)C(C)(C)C)o2)c(C)c1	1.6
COc1ccc(C(CC(=O)Nc2ccc(F)cc2)c2ccccc2)cc1 (configuration not stated)	i
CCOc1ccc(Cc2c(O)[nH]c(=O)[nH]c2=O)cc1	i
COC(=O)c1c(NC(=O)C2CCCO2)sc2c1CCC2 (configuration not stated)	0.9
O=C(Nc1ccc(S(=O)(=O)N2CCc3ccccc3C2)cc1)c1ccccc1	0.2
Cc1cccc(NC(=O)CC2CCC2)c1	0.0
Nc1nc(CN2CCC(Cc3ccccc3)CC2)nc(Nc2ccccc2)n1	0.7
CC(C)C(c1nnnn1C1CCCC1)N(C)C1CCCCC1 (configuration not stated)	0.7
O=C(CN(Cc1ccccc1Cl)C(=O)Cn1nnc(-c2cccs2)n1)NCC1CCCO1 (configuration not stated)	1.1
COC(=O)c1c(CSc2ccc(C)c(C)c2)noc1C(=O)NCc1ccc(OC)cc1	1.3
Cc1cc(=O)oc2ccc(OCC(=O)N3CCC(C)CC3)cc12	0.8
COc1cc(C2NC(=O)NC(O)(C(F)(F)F)C2C(=O)c2ccc(Cl)cc2)ccc1O (configuration not stated)	i
Cc1nnc(SCc2cn3ccsc3n2)n(N)c1=O	1.5
O=C(NCc1ccco1)c1cc(-c2ccco2)on1	0.2
Cc1ccccc1OCCCCCNCCO	i
CC(Oc1ccc(F)cc1)C(=O)Nc1ccc2ccccc2c1 (configuration not stated)	0.2
CCCCNC(=O)C1CC(=O)N(C2CCCC2)C1 (configuration not stated)	i
COc1ccc(NC(=O)N2CCCc3ccccc32)cc1	i
CC(Sc1nc(-c2ccccc2)cc(C(F)(F)F)n1)C(=O)N1CCCCC1 (configuration not stated)	2.3
Cc1ccc([N+](=O)[O-])cc1N=C(c1cccc(Br)c1)N1CCOCC1	1.6
COc1ccc(-c2cc(-c3ccc(F)cc3)nc(N3CCN(C)CC3)n2)cc1	0.4
COCCNC(=O)CCc1ccc(S(=O)(=O)Nc2ccc(C)cc2)cc1	1.0
COc1ccc(CNC(=O)Cn2nc(Cc3cccnc3)c3ccccc3c2=O)cc1	1.6
FC(F)(F)c1cc(C(F)(F)F)n2nc(-c3sccc3-n3cccc3)cc2n1	0.2
COCCN1C=C(C(=O)OC)C(c2ccccc2C(F)(F)F)C(C(=O)OC)=C1	1.0
Clc1cccc(-c2nnc(SCc3nc4ccccc4[nH]3)n2Cc2ccco2)c1	i
Cc1c(C(=O)Nc2ccccc2Cl)oc2ccc(S(=O)(=O)N3CCC4(CC3)OCCO4)cc12	0.9
COC(=O)C1(C(O)C(=O)c2ccc(C)cc2C)CCCCC1 (configuration not stated)	0.9
Cc1cccc(-c2noc(CN(C(C)C)S(=O)(=O)c3ccc(F)cc3)n2)c1	3.5
CCNc1nc(NCC)n2c(SCc3nc4ccccc4c(=O)[nH]3)nnc2n1	1.5
Cc1cc(C)cc(Oc2ncnc3c2ncn3Cc2c(Cl)cccc2Cl)c1	i
O=C(Oc1ccccc1[N+](=O)[O-])c1cccnc1	2.0
CCOc1ccc2[nH]cc(S(=O)(=O)c3ccc(F)cc3)c(=O)c2c1	1.2
OCCSc1ncnc2c1oc1ccccc12	0.8
COc1cccc(C2CC(=O)N3CN(c4ccccc4F)CSC3=C2C#N)c1 (configuration not stated)	i
CCOC(=O)c1cc(-c2ccc(C)cc2)n(CCC(=O)NCCN(C)C)c1C	i
O=C(c1ccccc1NS(=O)(=O)c1ccc(F)cc1)N1CCCC1	0.6

Gathered by group, the entries above containing a tert-butyl group
compound	H5N1 CPE
CC(C)(C)NS(=O)(=O)c1ccc(NS(C)(=O)=O)cc1	i
Cc1ccc(NCc2nnc(SCC(=O)N(Cc3ccccc3)C(C)(C)C)o2)c(C)c1	1.6

Next compounds
compound	H5N1 CPE
O=C(Nc1ccc(Oc2ccc(S(=O)(=O)N3CCOCC3)cn2)cc1)c1ccco1	i
CCCCSc1nc(C)c(CC(=O)O)c(=O)[nH]1	i
CC(C)C(C)NC(=O)COc1ncnc2ccccc12 (configuration not stated)	i
CC(NC(=O)C(=O)NN=C1CCCCCCCCCCC1)c1ccccc1 (configuration not stated)	i
COC(=O)c1cnn2c(C(F)(F)F)cc(-c3ccco3)nc12	4.5
c1ccc(-c2nc(N3CCN(c4ccccc4)CC3)nc(-n3ccnc3)n2)cc1	1.7
O=C(CN1C(=O)COc2ccccc21)NCCC1=CCCCC1	1.5
Cc1sc2c(=O)n3c(nc2c1C(=O)NC1CCCCC1)CCCCC3	0.6
Cc1ccccc1Nc1nnc(SCc2cc([N+](=O)[O-])cc3c2OCOC3)s1	0.0
CC1(C)N([O-])C(c2cccs2)=C[N+]1=O	0.1
COc1ccc(-n2nnnc2SCC(=O)NC(=O)Nc2ccc3c(c2)OCCO3)cc1	i
CC12CCCCC1N(O)CN2O (configuration not stated)	i
CC(C)CNc1nc(=S)nc(N(C)C)[nH]1	0.0
Cn1c(=N)c(S(=O)(=O)c2ccccc2)cc2c(=O)n3ccccc3nc21	1.3
COc1ccc(C2C3=C(CC(C)(C)CC3=O)Nc3c2c(=O)[nH]c2nc(C)nn32)cc1 (configuration not stated)	0.4
COC(=O)c1onc(C(=O)c2ccccc2)c1C(=O)OC	0.8
N#CCC1c2ccccc2CCN1C(=O)Nc1cccc(C(F)(F)F)c1 (configuration not stated)	i
CCC(C)(C)n1nnnc1C(c1ccc2ncccc2c1)N1CCN(Cc2ccc3c(c2)OCO3)CC1 (configuration not stated)	i
CCOc1ccc(NC(=O)CSC2=C(C#N)C(c3ccc4c(c3)OCO4)CC(=O)N2)cc1 (configuration not stated)	i
O=S(=O)(Nc1ccc(-c2csc(-c3ccccc3)n2)cc1)c1ccc(F)cc1	i
COc1cc(-n2c(C)nc3cc(C(=O)NCCN4CCOCC4)ccc32)cc(OC)c1OC	i
CC(=C\C(=O)O)/C(=C/c1ccccc1)C(=O)O	0.7
COc1cc(NC(=S)Nc2cccnc2)cc(OC)c1OC	0.3
CCOC(=O)CN1NC2(CCCC(C)C2)NC1=S (configuration not stated)	0.5
COc1ccc(-c2nnc(SCC(=O)NC(C)C)n2CC2CCCO2)cc1OC (configuration not stated)	0.1
CC(=O)Nc1ccc(Nc2ncc([N+](=O)[O-])c(Nc3ccc(NC(C)=O)cc3)n2)cc1	2.1
O=S(=O)(N1CCOCC1)n1c(Cc2ccccc2)nc2ccccc21	0.5
CC(=O)c1cccc(NC(=O)N2CCCC2C(=O)NCc2ccc(F)cc2)c1 (configuration not stated)	0.1
Cn1cccc1C1(C(F)(F)F)NCCNC1=O (configuration not stated)	0.5
O=C(O)c1ccccc1NCc1ccncc1	i
COC(=O)[C@H](CCSC)NC(=O)NCc1ccccn1	i
N#Cc1c(C(F)(F)F)cc(C2CC2)[nH]c1=O	1.1
O=C(OCN1C(=O)c2ccccc2C1=O)c1cccs1	0.3
COc1ccc(C(=O)/C=C/Nc2ccc([N+](=O)[O-])cc2C)cc1OC	i

An excerpt; rates above refer to the full screens.
